Source: PubChem BioAssay
GIRK2 activ: activators of human GIRK2 potassium channels; HEK293-GIRK2 thallium flux, Thallos fluorescence; actives 0.05% (n = 63,000); calls only for hits at 25 µM;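 active = among the strongest 0.2% of first-round signals and kept after retests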;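 also: first round at about 10 µM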
Target sequence (P48051 whole entry, looked up): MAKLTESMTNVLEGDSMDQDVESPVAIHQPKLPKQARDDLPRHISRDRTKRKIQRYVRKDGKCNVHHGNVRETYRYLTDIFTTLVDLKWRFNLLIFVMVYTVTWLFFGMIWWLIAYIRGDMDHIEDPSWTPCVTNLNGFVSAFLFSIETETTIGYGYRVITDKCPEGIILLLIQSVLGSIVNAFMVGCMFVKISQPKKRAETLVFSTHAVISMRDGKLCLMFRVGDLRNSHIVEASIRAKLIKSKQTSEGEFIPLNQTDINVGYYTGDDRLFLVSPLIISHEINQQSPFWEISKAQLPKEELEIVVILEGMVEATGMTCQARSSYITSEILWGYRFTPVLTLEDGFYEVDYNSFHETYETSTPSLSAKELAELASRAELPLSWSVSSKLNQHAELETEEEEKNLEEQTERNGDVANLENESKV
Calls only; i = inactive. This is a subset (hit frequency here may not be typical).

GIRK2 activ	structure
i	CC1=C(C(=O)OC(C)C)C(c2ccc(OCc3ccccc3)cc2)NC(=O)N1Cc1ccccc1 (centres undefined)
i	O=C(CSc1nc2ccccc2s1)NCCn1cnc(-c2ccc(F)cc2)cc1=O
i	CCOCC(=O)NCC1CCN(Cc2ccco2)CC1
i	COc1ccc(N/C=C(\C#N)c2nc(-c3cccc([N+](=O)[O-])c3)cs2)cc1OC
i	CCOC(=O)N1CCN(C(=O)CCc2csc3nc(-c4ccc(Cl)cc4)cn23)CC1
i	COc1ccc(C(=O)Nc2ccc(C)c(N3CCCC3=O)c2)cc1
i	NC(=O)c1ccc(NC(=O)C(=O)NC2CCCCC2)cc1
i	COc1cc(NC(=O)CSc2nccn2-c2ccc(C(=O)NCc3ccco3)cc2)cc(OC)c1
i	COc1ccc(CNC(=O)c2cc(-c3ccccc3)ns2)cc1
i	Cc1ccc(-c2cc3c(=O)n(CC(=O)Nc4ccc(C(C)C)cc4)ccn3n2)cc1
i	O=C(CNC(=O)c1ccc(=O)[nH]c1)NCCn1nc(-c2ccco2)ccc1=O
i	COCCc1noc(Cn2cccc(-c3nc(C4CC4)no3)c2=O)n1
i	CCCCn1c(O)c(C=Nc2cccc(C)c2)c(C)c(C#N)c1=O
i	O=C(C1CCCN(c2nc3c(-c4ccccc4)csc3c(=O)[nH]2)C1)N1CCCCC1 (centres undefined)
i	O=C(Cn1nc(-c2ccco2)c2sc(N3CCCCC3)nc2c1=O)N1CCc2ccccc21
i	Cc1ccc(-c2ccc(N3CCCC(C(=O)NCCCOC(C)C)C3)nn2)cc1C (centres undefined)
i	O=C(Nc1nc2c(s1)CN(C(=O)c1ccco1)CC2)C1CCCO1 (centres undefined)
i	COc1ccc(CCNC(=O)N2CC(c3nc(-c4ccc[nH]c4=O)no3)C2)cc1
i	Cc1ccc(NC(=O)Cn2cccc(S(=O)(=O)N3CCCCCC3)c2=O)c(C)c1
i	COc1cccc(C(=O)Nc2ccc3c(c2)N(C(=O)c2ccccc2)CCC3)c1
i	Cc1ccc(NC(=O)Cn2nc3c(N4CCOCC4)nccn3c2=O)cc1F
i	COc1ccccc1N1CCN(C(=O)Cn2nc3ccc(-c4ccc(Cl)cc4)nn3c2=O)CC1
i	Cc1ccc2nc(N(CCN3CCOCC3)C(=O)c3ccc4c(c3)OCCO4)sc2c1
i	Cc1ccc(C(O)CNS(=O)(=O)c2ccccc2Br)o1 (centres undefined)
i	CCn1c(-c2nonc2N)nc2ccccc21
i	Cc1cc(=O)[nH]c(-n2nc(-c3cccs3)cc2NC(=O)C(C)(C)Oc2ccc(Cl)cc2)n1
i	Cc1nnc(C2CCCN(C(=O)/C=C/c3ccc4c(c3)OCO4)C2)s1 (centres undefined)
i	O=C(O)CCC/C=C\CC1C(=O)C=C[C@@H]1CCC(O)CCc1ccccc1 (some centres undefined)
i	O=S(=O)(c1cccc(-c2nnc(SCCc3ccccc3)o2)c1)N1CCCCC1
i	CC1=NNc2nc3c(c(=O)n(Cc4ccccc4C)c(=O)n3C)n2C1

Arranged by molar mass (ascending): some entries from above.
GIRK2 activ	structure
i	O=C(Nc1nc2c(s1)CN(C(=O)c1ccco1)CC2)C1CCCO1 (centres undefined)
i	O=C(CNC(=O)c1ccc(=O)[nH]c1)NCCn1nc(-c2ccco2)ccc1=O
i	Cc1ccc2nc(N(CCN3CCOCC3)C(=O)c3ccc4c(c3)OCCO4)sc2c1

Further compounds follow:
GIRK2 activ	structure
i	O=C(c1cc(-c2ccco2)[nH]n1)N1CCN(c2ncccn2)CC1
i	O=C(Nc1ccc(CC(=O)N2CCOCC2)cc1)c1cc2ccccc2oc1=O
i	NC(=O)c1ccccc1OCC#CCNC(=O)COc1ccc(Cl)cc1
i	CC(C)c1ccc(NC(=O)Cn2nc3c(N4CCCCC4)nccn3c2=O)cc1
i	COc1ccc(S(=O)(=O)N2CCCOC2CNC(=O)C(=O)NC2CC2)cc1 (centres undefined)
i	COc1ccccc1C(=O)Nc1ccccc1NC(=O)CC1CCCC1
i	O=C(Cn1cnc2ccccc2c1=O)N1CCN(S(=O)(=O)C2CC2)CC1
i	Cn1c(=O)c2c(nc3n2CCN3c2ccccc2O)n(C)c1=O
i	O=C(CSc1nnc(N2CCN(c3ccc(F)cc3)CC2)s1)NCC1CCCO1 (centres undefined)
i	CCOc1ccc(Nc2sc(C(=O)c3ccccc3)c(N)c2S(=O)(=O)CC)cc1
i	CC(=O)C=C=C1C(C)(C)CC(O)CC1(C)O[C@@H]1O[C@H](CO)[C@@H](O)[C@H](O)[C@H]1O (some centres undefined)
i	CCOc1ccccc1NC(=O)CCc1csc(NC(=O)Nc2ccc(OC)cc2)n1
i	COc1ccc(C)cc1NC(=O)Cn1cnc2c(sc3cccc(F)c32)c1=O
i	COc1ccc(-n2ccn(CC(=O)Nc3ccc(OC)c(OC)c3)c2=O)cc1
i	O=C(N1CC(c2nc(-c3ccncc3)no2)C1)C1(c2cccs2)CCCC1
i	Cn1nc(-c2ccc(F)cc2)cc1C(=O)NCC1CCN(C(=O)NC(C)(C)C)CC1
i	COc1cccc(C(=O)N(CCN2CCOCC2)c2nc3c(SC)cccc3s2)c1
i	Cc1cc(OCC(=O)Nc2ccc(C)c(Cl)c2)nc(N2CCCC2)n1
i	CNC(=O)c1cncc(/C=C/c2ccccc2C)c1
i	Cn1c(NC(=O)c2cccs2)c(-c2ccc3c(c2)OCO3)c(=O)c2ccccc21
i	CN(C)CCOc1ccc(-c2cc(-c3ccc4c(c3)CCC4=NO)c(-c3ccncc3)o2)cc1
i	CC(=O)c1ccc(N2CCN(C(=O)c3ccc4c(=O)n(-c5ccccc5)c(=O)[nH]c4c3)CC2)cc1
i	COc1ccc(S(=O)(=O)NCCc2csc(-c3cccc(C)c3)n2)cc1F
i	Cc1nn(C)cc1CNC(=O)C1CC1
i	COc1cccc(NC(=O)NNC(=O)c2cccn(Cc3cccc(Cl)c3)c2=O)c1
i	CC(=O)O[C@@]12C[C@@H](C)[C@@]3(O)[C@@H](C=C(CO)C[C@]4(O)C(=O)C(C)=C[C@@H]34)[C@@H]1C2(C)C
i	CC(C)S(=O)(=O)c1ccc(CC(=O)NCC2(c3cccs3)CCCC2)cc1
i	O=S(=O)(CCOc1ccccc1)N1CCN(c2ccc(F)c(Cl)c2)CC1
i	COc1ccc(-c2nc(C#N)c(N3CCN(C(=O)c4cccs4)CC3)o2)cc1
i	COc1ccc(Cl)cc1C(=O)N(CCc1cccs1)Cc1ccco1

Carrying on.
GIRK2 activ	structure
i	CN(C(=O)c1ccc(-c2ccc(Cl)cc2[N+](=O)[O-])o1)C1CCS(=O)(=O)C1 (centres undefined)
i	Cn1c(=O)[nH]c2c(C(=O)N3CCN(c4ccc(F)cc4)CC3)snc2c1=O
i	Cc1ccc(-c2noc(C3CC(=O)N(c4ccc(C)cc4C)C3)n2)cc1 (centres undefined)
i	COc1ccc(-c2cc3c(SCC(=O)Nc4ccccc4OC)nccn3n2)cc1
i	Cn1cc(C(=O)NCCc2ccccc2)c(S(=O)(=O)N2CCN(c3ccc(Cl)cc3)CC2)n1
i	CC(=O)Oc1ccc2cc(-c3ccccn3)c(=O)oc2c1
i	COc1ccc2c(c1)c(CC(=O)NCCc1ccccc1)c(C(F)(F)F)n2C(=O)c1ccc(Cl)cc1
i	Cc1ccc(Cn2c(=O)n(CCCCC(=O)NCc3ccc4c(c3)OCO4)c(=O)c3ccccc32)cc1
i	NC(=O)c1sc(-n2cnc3cc(C(F)(F)F)ccc32)cc1OCc1ccccc1Br
i	CCCCNS(=O)(=O)CCNC(=O)c1ccc2c(c1)OCO2
i	Cn1cc(C2=C(c3c4n(c5ccccc35)CCC(CN)C4)C(=O)NC2=O)c2ccccc21 (centres undefined)
i	COc1ccc(NC(=O)c2cc3cc(Br)cc(OC)c3oc2=O)c(OC)c1
i	COc1ccc(CNC(=O)N2CCC(COCc3ccccc3)CC2)cc1OC
i	Cn1c(-c2ccccn2)nn(CCNC(=O)c2cc(-c3ccccc3)on2)c1=O
i	CCc1c(C)nc(-n2nc(C3CC3)cc2NC(=O)c2cccs2)[nH]c1=O
i	Cc1nnc(NC(=O)COc2c(C)cc(Br)cc2C)s1
i	COc1ccccc1CNC(=O)C1CCN(c2nc3ccsc3c(=O)n2Cc2ccccc2)CC1
i	CCOc1ccc(-c2noc(Cn3cnc4c(nnn4Cc4ccccc4)c3=O)n2)cc1
i	CC1CCCCC12NC(=O)N(CC(=O)Nc1ccc3c(c1)OCCO3)C2=O (centres undefined)
i	Cc1cn2c3c(=O)n(C/C=C/c4ccccc4)c(=O)n(C)c3nc2n1CCOCCO
i	COc1ccccc1CNS(=O)(=O)c1cc2c3c(c1)CCC(=O)N3CCC2
i	CCCCn1c(=O)c2c(nc(-n3nc(C)cc3C)n2Cc2ccc(OC)cc2)n(C)c1=O
i	CCn1c(-c2nonc2N)nc2c(C#CC(C)(C)O)ncc(OC3CCNCC3)c21
i	O=C(NCCc1c[nH]c2ccccc12)C1COCC(=O)N1Cc1cccs1 (centres undefined)
i	C=C[C@]1(C)C[C@@H](OC(=O)CO)[C@]2(C)[C@H](C)CC[C@]3(CCC(=O)[C@H]32)[C@@H](C)[C@@H]1O
i	COc1ccc(NC(=O)CSc2ncc(-c3ccc(Br)cc3)o2)c(OC)c1
i	COc1ccc(Cl)cc1C(=O)Nc1ccc2c(C)cc(=O)[nH]c2c1
i	O=C(NCCOc1ccccc1)Nc1ccc(CC(=O)N2CCCC2)cc1
i	O=C(O[C@H]1CN[C@H](C#Cc2cc3ncnc(Nc4ccc5c(cnn5Cc5ccccc5)c4)c3s2)C1)N1CCOCC1
i	CCCn1c(=O)c2c(nc3n2CCCN3c2cc(C)ccc2OC)n(C)c1=O

The listing continues.
GIRK2 activ	structure
i	CC(C)N(CC#CCNC(=O)Nc1ccccc1C(F)(F)F)C(C)C
i	Cc1ccc(NC(=O)C2CSCCC(=O)N2)cc1F (centres undefined)
i	Cc1ccc(-n2nnc(C(=O)Nc3ccc(F)cc3F)c2-n2cccc2)cc1
i	O=C(NCCn1nc(-n2ccnc2)ccc1=O)c1ccc(F)cc1F
i	Cc1cn2c3c(=O)n(CCc4ccccc4)c(=O)n(C)c3nc2n1CCCN(C)C
i	CCOc1cc(C(=O)Nc2ccc3c(c2)CCCN3C(C)=O)cc(OCC)c1OCC
i	COc1cc(OC)c(NC(=O)Cn2cnc3c(sc4nc(C)cc(C)c43)c2=O)cc1Cl
i	CCCN(CCC)Cc1cc(=O)oc2cc(C)cc(C)c12
i	CC(=O)c1ccc(NC(=O)CSc2ncc(-c3ccc(Cl)cc3)o2)cc1
i	CS(=O)(=O)N1CCc2nc(NC(=O)c3ccccc3Br)sc2C1
i	CCSc1nnc(NC(=O)C2c3cc(F)ccc3CCN2C(=O)OC)s1 (centres undefined)
i	COc1cccc(OCC(=O)NNC(=O)c2cccn(Cc3ccc(F)cc3)c2=O)c1
i	CC(C)Oc1ccc(-c2noc(Cn3cnc4c(nnn4Cc4ccc(Cl)cc4)c3=O)n2)cc1
i	Cc1nc(-c2ccc(N3CCN(C(=O)NCCc4ccccc4)CC3)nc2)no1
i	CC(C(=O)Nc1cc(Cl)ccc1C#N)n1nc(-c2ccc(F)cc2)ccc1=O (centres undefined)
i	Cc1ccccc1-c1nnn(CC(=O)Nc2ccc3c(c2)C(=O)OC3)n1
i	O=C(c1cn(-c2cc(N3CCOCC3)ncn2)cn1)N1CCSCC1
i	COCCCn1c(=O)c2ccccc2n(Cc2nc(-c3ccc(OC(C)C)cc3)no2)c1=O
i	Cc1nc(-c2ccc(N3CCN(S(=O)(=O)C4CC4)CC3)nc2)no1
i	Cc1ccc2nc(NC(=O)CCn3c(=O)oc4ccc(Cl)cc43)sc2c1
i	O=C(N1CCCSCC1CN1CCCC1)C1(c2cccs2)CCCC1 (centres undefined)
i	CCc1nc(OCC(=O)NCc2ccc(OC)cc2)c2ccccc2n1
i	Cn1c(C2CCC(CNC(=O)CCC(=O)c3ccccc3)CC2)nc2ccccc21 (centres undefined)
i	Cc1ccc(NC(=O)C(=O)NCC2CCN(C(=O)c3ccoc3)CC2)cc1C
i	OCCCc1nc2ccccc2n1Cc1ccc(F)cc1
i	O=C(NCC1(c2ccccc2)CCOCC1)NC(c1ccccc1)c1ccccc1
i	O=C(Nc1cc(N2CCOCC2)ncn1)c1c(F)cccc1Cl
i	NC(=O)CCC/C=C\C[C@@H]1[C@@H](/C=C/[C@@H](O)CCc2ccccc2)[C@H](O)C[C@@H]1O
i	CCn1cnc2c(-c3ccccc3)cn(CC(=O)Nc3cccc(C(F)(F)F)c3)c2c1=O
i	N#Cc1nc(-c2ccc(Cl)cc2)oc1N1CCN(C(=O)c2ccco2)CC1

Structural class: those above containing a CF3 group (four)
GIRK2 activ	structure
i	COc1ccc2c(c1)c(CC(=O)NCCc1ccccc1)c(C(F)(F)F)n2C(=O)c1ccc(Cl)cc1
i	NC(=O)c1sc(-n2cnc3cc(C(F)(F)F)ccc32)cc1OCc1ccccc1Br
i	CC(C)N(CC#CCNC(=O)Nc1ccccc1C(F)(F)F)C(C)C
i	CCn1cnc2c(-c3ccccc3)cn(CC(=O)Nc3cccc(C(F)(F)F)c3)c2c1=O

2 compounds drawn at random from the list so far:
GIRK2 activ	structure
i	CC(C)Oc1ccc(-c2noc(Cn3cnc4c(nnn4Cc4ccc(Cl)cc4)c3=O)n2)cc1
i	CCOc1cc(C(=O)Nc2ccc3c(c2)CCCN3C(C)=O)cc(OCC)c1OCC

Returning to the listing; the 2 compounds before the break are reprinted first.
GIRK2 activ	structure
i	CCn1cnc2c(-c3ccccc3)cn(CC(=O)Nc3cccc(C(F)(F)F)c3)c2c1=O
i	N#Cc1nc(-c2ccc(Cl)cc2)oc1N1CCN(C(=O)c2ccco2)CC1
i	O=C(Cn1nc2ccc(-c3ccccc3)nn2c1=O)Nc1cccc(Br)c1
i	COC(=O)c1sccc1S(=O)(=O)NCCc1nc(-c2ccco2)cn1C
i	COCCN(Cc1ccoc1)C(=O)/C=C/c1cccs1
i	O=S(=O)(c1cccs1)N1CCC(c2nnc(-c3ccco3)s2)CC1
i	CC1=C(C(=O)OC2CCCCCCC2)C(c2ccccc2Cl)NC(=O)N1 (centres undefined)
